High-throughput results deposited in PubChem BioAssay by National Center for Advancing Translational Sciences (NCATS).
Cruzain inh noDet: blocks cruzain activity in detergent-free assay. P25779. purified cruzain, Z-FR-AMC fluorescence, no detergent. Potency, µM, for inactives: max response, negative = inhibition, most hits filed as inhibitors. 200,000 compounds, 2.3% hits. AID 1476; active means well fitted curve in the direction sought with a large enough effect; inconclusive means small, poorly fitted or top-dose-only effect, or another doubt; inactive means no such curve, though single readings can be large; an effect the other way counts as inactive or inconclusive;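 further: plate controls were enzyme without inhibitor for no effect and buffer without enzyme for full effect; nearly all actives have a fitted effect of over 40% in size; top concentration of the series not given in the record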
Target sequence (P25779 123-467 limits assumed): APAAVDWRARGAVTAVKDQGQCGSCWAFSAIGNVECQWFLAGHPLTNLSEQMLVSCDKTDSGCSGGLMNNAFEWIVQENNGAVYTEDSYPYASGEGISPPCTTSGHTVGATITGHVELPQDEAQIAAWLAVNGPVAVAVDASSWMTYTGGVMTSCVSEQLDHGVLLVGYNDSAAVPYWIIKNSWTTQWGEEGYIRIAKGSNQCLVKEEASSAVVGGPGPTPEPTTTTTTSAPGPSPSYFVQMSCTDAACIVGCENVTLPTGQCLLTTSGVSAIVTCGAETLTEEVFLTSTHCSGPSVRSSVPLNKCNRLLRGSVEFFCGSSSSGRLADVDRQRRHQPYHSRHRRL
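Purified cruzain at 1.5 nM, pre-incubated 15 min with compound at room temperature in 100 mM sodium acetate pH 5.5, 5 mM DTT, 0.00005% Triton X-100. Reaction started with 2 uM Z-FR-AMC; AMC fluorescence increase over 60 s gives rate.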
Marburg entry inh: blocks Marburg virus binding to or entry into cells; Marburg virus pseudotyped entry inhibition, cell reporter; control for the full effect not named in the record; about a third of the inactives were read at about 46 µM; Potency, µM (doses to about 37.8 µM), without a hit: at the top dose activity change, negative = inhibition, hits mostly inhibitors; 300,000 compounds, 1.8% hits; AID 540276; active = well fitted inhibition curve with a large enough effect; inconclusive = small, poorly fitted or top-dose-only effect, or effect the other way; inactive = flat fitted curve, though single readings scatter; tested in HEK293 cells; about a fifth of its hits are not listed in these tables; further: on the % scale 0 is the no-effect control and ±100 the full control effect; luciferase read-out
RE007 growth inh: less growth of the S. pombe RE007 Vpr strain; S. pombe RE007 Vpr strain, BacTiter-Glo ATP luminescence, 24 h; control for the full effect not named in the record; AID 651644; Potency, µM (titrated, usually from 92.2 µM), for the others: at the top dose activity change, negative = less growth; 360,000 compounds, 0.21% hits; active = well fitted falling curve with a large enough effect; inconclusive = small, poorly fitted or top-dose-only effect; inactive = no such curve, though single readings can be large or run the other way;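 further: on the % scale 0 is the no-effect control and ±100 the full control effect; nearly all actives have a fitted effect of over 50% in size; the assay follows cell death caused by Vpr and the record does not say whether a fall means rescue or toxicity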
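Fission yeast strain RE007, carrying one chromosomally integrated HIV-1 vpr copy, was seeded at OD 0.01 in PMG+AL medium with 23 nL pinned compound. After 24 h at 30 °C and 99% humidity, viability was read by BacTiter-Glo luminescence.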
SARS PLP yeast: blocks SARS-CoV papain-like protease in a yeast assay. S. cerevisiae expressing SARS-CoV PLpro, growth rescue; control for the full effect not named in the record. Potency, µM (titrated, usually from 32.9 µM), inactives show top-dose activity, positive = growth rescue. AID 485353. 330,000 compounds, 0.19% hits; further: 0% is about no effect; nearly all actives have a fitted effect of over 55% in size; growth read by luminescence after 48 h
NS1 function inh: inhibitors of influenza NS1 protein function; Potency, µM (series often up to 46.1 µM), inactives show at the highest dose activity, positive = more growth; AID 2326; S. cerevisiae slowed by influenza A NS1, growth recovery by OD600; 270,000 compounds, 0.4% hits; further: actives are rising curves; nearly all actives have a fitted effect of over 50% in size
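A cell-based growth assay was used: compounds that relieve NS1-induced slow growth of budding yeast raise OD600. Assay medium was yeast nitrogen base with ammonium sulphate and -URA supplement, pH 6.0, with 2% galactose.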
Cruzain inh Det: cruzain (T. cruzi) inhibition with detergent | AID 1478 | Potency, µM, for the others: max response, negative = inhibition, actives largely listed as inhibitors | 200,000 compounds, 0.43% hits | P25779 | purified cruzain, Z-FR-AMC fluorescence, 0.01% Triton; active means well fitted curve in the direction sought with a large enough effect; inconclusive means small, poorly fitted or top-dose-only effect, or another doubt; inactive means no such curve, though single readings can be large; an effect the other way counts as inactive or inconclusive;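 further: plate controls were neutral wells for no effect and buffer without enzyme for full effect; nearly all actives have a fitted effect of over 40% in size; top concentration of the series not given in the record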
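15 min RT preincubation of 1.5 nM cruzain with compound, then 2 uM Z-FR-AMC added; kinetic AMC fluorescence, 60 s delta. Triton X-100 0.01%, pH 5.5.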
Lassa entry inh: blocks Lassa virus binding to or entry into cells; 300,000 compounds, 1.2% hits; Lassa virus pseudotype entry inhibition, cell reporter; control for the full effect not named in the record; Potency, µM (titrated, usually from 37.9 µM), for inactives: at the top dose activity change, negative = inhibition, actives largely listed as inhibitors; AID 540256; active means well fitted inhibition curve with a large enough effect; inconclusive means small, poorly fitted or top-dose-only effect, or effect the other way; inactive means flat fitted curve, though single readings scatter; tested in HEK293 cells; further: on the % scale 0 is the no-effect control and ±100 the full control effect; nearly all actives have a fitted effect of over 50% in size; luciferase read-out
StopGo reporter: lowers the luciferase signal of an FMDV 2A StopGo reporter | human cells with a luciferase reporter of 2A StopGo recoding; control for the full effect not named in the record | Potency, µM (highest dose often 57.9 µM), without a hit: at the highest dose signal change, negative = less light | 410,000 compounds, 1.2% hits | AID 1159524; active = well fitted falling curve with a large enough effect; inconclusive = small, poorly fitted or top-dose-only effect; inactive = no such curve, though single readings can be large or run the other way; tested in HEK293T cells; further: on the % scale 0 is the no-effect control and ±100 the full control effect; nearly all actives have a fitted effect of over 45% in size; luciferase light after 4 h
Starred values were filed as active, the others as inactive; ? = inconclusive; · = not tested or not shown; [ ] = dose if it differs, or a comment. Unless noted, the call rests on the fitted dose curve; in most records, active means well fitted rising curve with a large enough effect; inconclusive means small, poorly fitted or top-dose-only effect; inactive means no such curve, though single readings can be large or run the other way. Potency means the concentration at half of the fitted maximal effect.

SMILES	Cruzain inh noDet	Marburg entry inh	RE007 growth inh	SARS PLP yeast	NS1 function inh	Cruzain inh Det	Lassa entry inh	StopGo reporter
Cc1ccnc(NC(c2ccccn2)c2c(C)[nH]c3ccccc23)c1 (stereo unspecified)	·	-12%[46.1 µM]	-5%	0%	0%	·	-6%	-23%
COc1ccc(-c2nc(CN3CCCCC3c3cccnc3)c(C)o2)c(F)c1 (stereo unspecified)	·	?	-13%	-1%	4%	·	-24%[46.1 µM]	-9%
O=C(CNC(=O)OCc1ccccc1)Nc1ccc(Br)cc1C(=O)c1ccccc1Cl	7%	?	-18%	8%	6%	-4.3%	1%	0%
O=c1oc2ccc3ccccc3c2cc1-c1nnc(Nc2ccccc2)s1	4%	·	·	·	·	1.3%	0%[46.1 µM]	2%
COc1cc2c(cc1NC(=O)COC(=O)[C@@H](NS(=O)(=O)c1ccccc1)C(C)C)oc1ccccc12	?	?	19%	1%	-16%	-1.7%	-18%	24%
COCCOC(=O)C1=C(C)Nc2ncnn2C1c1ccco1 (stereo unspecified)	·	0%[14.2 µM]	1%	0%	-2%	·	1%	-2%
CC1(C)CC(=O)C(C2C3=C(CC(C)(C)CC3=O)OC3=C2C(=O)CC(C)(C)C3)=C(O)C1	·	-3%	-3%	0%	-1%	·	2%	-10%
CN(c1ccc(C(=O)NCc2ccccn2)cc1)S(=O)(=O)c1ccc(Cl)cc1	·	8%	-12%	1%	-26%	·	-5%	-21%
Fc1ccc(NC(=S)Nc2ccccc2OC(F)F)cc1Cl	2%	-22%	-3%	-38%	-38%	-4.8%	13%	0%
COc1ccccc1CNC(=O)CSc1nnc2ccc(-c3cccnc3)nn12	·	-10%[46.1 µM]	5%	-2%	·	·	-1%	-14%

One compound at a time, as listed above:
CN(c1ccc(C(=O)NCc2ccccn2)cc1)S(=O)(=O)c1ccc(Cl)cc1 reads Cruzain inh noDet: ·; Marburg entry inh: 8%; RE007 growth inh: -12%; SARS PLP yeast: 1%; NS1 function inh: -26%; Cruzain inh Det: ·; Lassa entry inh: -5%; StopGo reporter: -21%
COc1cc2c(cc1NC(=O)COC(=O)[C@@H](NS(=O)(=O)c1ccccc1)C(C)C)oc1ccccc12 reads Cruzain inh noDet: ?; Marburg entry inh: ?; RE007 growth inh: 19%; SARS PLP yeast: 1%; NS1 function inh: -16%; Cruzain inh Det: -1.7%; Lassa entry inh: -18%; StopGo reporter: 24%
COc1ccc(-c2nc(CN3CCCCC3c3cccnc3)c(C)o2)c(F)c1 (stereo unspecified) reads Cruzain inh noDet: ·; Marburg entry inh: ?; RE007 growth inh: -13%; SARS PLP yeast: -1%; NS1 function inh: 4%; Cruzain inh Det: ·; Lassa entry inh: -24%[46.1 µM]; StopGo reporter: -9%

New compounds follow:
SMILES	Cruzain inh noDet	Marburg entry inh	RE007 growth inh	SARS PLP yeast	NS1 function inh	Cruzain inh Det	Lassa entry inh	StopGo reporter
Cc1onc(-c2ccccc2)c1C(=O)N1CCN(c2ccc([N+](=O)[O-])cc2)CC1	·	27%	-14%	·	·	·	-3%	?
N#CCCN1CCN(S(=O)(=O)c2ccc(S(=O)(=O)NC3CC3)cc2)CC1	5%	·	3%	6%	4%	2.0%	·	0%
O=[N+]([O-])c1cccc(-c2csc(N/N=C/c3cccc(O)c3)n2)c1	·	?	-20%	0%	·	·	7.9µM*	?
CCc1cccc(N2C(=O)CS(=O)(=O)C23C(=O)N(Cc2ccccc2)c2ccc(C)cc23)c1 (stereo unspecified)	1.6µM*	·	·	·	·	-3.9%	?	?
O=C(c1cc([N+](=O)[O-])cc([N+](=O)[O-])c1)N1CCN(Cc2ccc3c(c2)OCO3)CC1	·	0%	4%	0%	·	·	-21%	?
COc1ccc(-n2c(SCC(=O)NCc3ccc(Cl)cc3)nc3ccsc3c2=O)cc1	7%	·	·	·	·	-3.6%	-3%[46.1 µM]	-10%
Nc1cc2c(cc1[N+](=O)[O-])OCCOCCOCCO2	·	-1%[46.1 µM]	14%	0%	3%	·	?	-14%
COc1ccc(N2C(=O)CSC23C(=O)N(C)c2ccccc23)cc1Cl (stereo unspecified)	3%	·	·	·	·	-4.2%	16%[46.1 µM]	-7%
CN(CC(=O)NCCCN1CCOCC1)S(=O)(=O)c1cc(Cl)ccc1Cl	·	8%	4%	-2%	4%	·	9%	-7%
COc1ccc(NC(=O)CSc2nnc(C)n2Cc2ccccc2)cc1	-4%	11%	21%	11%	-1%	4.7%	12%	17%
CC(C)(O)C#Cc1ccc(C(=O)NCc2cccs2)s1	1%	20%	-1%	-1%	-6%	-1.6%	16%	41%[activator]
CC(C)(C)CC(=O)NC(=S)N1CCCCCC1	8%	12%	-10%	14%	-1%	1.8%	5%	34%[activator]
O=C(c1cc2nc(-c3ccco3)cc(C(F)(F)F)n2n1)N1CCCCCC1	?	-2%	-4%	6%	-67%	-6.6%	7%	·
CCC(c1c(C)n(C)n(-c2ccccc2)c1=O)c1c(C)n(C)n(-c2ccccc2)c1=O	0%	?	16%	4%	4%	4.4%	4%	-10%
Cc1cc(C(F)(F)F)nn1CC(=O)NNC(=S)Nc1cccc(Cl)c1	-4%	28%	-1%	-3%	6%	3.5%	4%	0%
CCc1ccc(-c2nn(CC(=O)NC3CCCC3)c3c2cnc2ccc(F)cc23)cc1	-4%	·	·	·	·	-0.2%	-1%[46.1 µM]	40%[activator]
O=C1C2=C(Nc3ccccc3SC2c2ccco2)c2ccccc21 (stereo unspecified)	?	?	-4%	-14%	-55%	-1.0%	?	0%
O=C1Nc2ccccc2S/C1=C/Nc1cccc(Cl)c1	1%	-27%	-3%[3.69 µM]	-3%	-7%	-3.3%	15%	27%
COc1ccc(OC)c(NC(=O)CCNC(=O)Cn2ccc3ccccc3c2=O)c1	·	1%[46.1 µM]	-15%	22%	4%	·	-9%[46.1 µM]	-9%
COc1ccc(C(=O)CN2C(=O)NC3(CCCCC3)C2=O)cc1OC	·	1%[46.1 µM]	0%	0%	·	·	-11%[46.1 µM]	-5%
O=C(Nc1nccs1)c1cccc(N2C(=O)c3cccc4c([N+](=O)[O-])ccc(c34)C2=O)c1	-14%	?	-3%	0%	5%	3.2%	?	-24%
COCCNC(=O)CN1C(=O)NC2(CCCc3ccccc32)C1=O (stereo unspecified)	·	5%[46.1 µM]	-8%	-1%	4%	·	-2%[46.1 µM]	-17%
Cn1c(C(=O)c2ccncc2)cc2ccccc21	·	·	8%	-1%	0%	·	·	-2%
Nc1ccccc1C(=O)NNc1c2ccccc2nc2ccccc12	·	·	-4%	-1%	8%	·	·	-25%
CC12CCC(=O)N1C(C(=O)N1CCN(c3ccc(C(F)(F)F)cc3[N+](=O)[O-])CC1)CS2 (stereo unspecified)	·	1%	-3%	-8%	2%	·	10%	-29%
Cc1cc2oc(=O)cc(Cn3nnc(-c4ccc(Cl)cc4)n3)c2cc1C(C)C	?	·	·	-2%	-2%	-7.0%	·	·
O=C(O)c1ccc(N/N=C/C=C/c2ccccc2)cc1	·	·	-25%	-18%	-108%	·	·	23%
COCCNc1ncnc2c1cnn2Cc1ccc(Cl)cc1	7%	?	-1%	4%	-12%	-0.3%	-7%	?
O=C(NCc1ccccc1)c1cc[n+]([O-])cc1	·	·	-1%	1%	4%	·	·	17%
CC(=O)/C(=C\N(C)C)Sc1ccc(C)cc1	·	6%[46.1 µM]	-5%	-4%	0%	·	-2%	-6%
COc1cccc(CN2CCNC(=O)C2CC(=O)NC2CCCCCCC2)c1 (stereo unspecified)	·	·	10%	13%	23%	·	·	-1%
COCCCn1c(=O)c2ccccc2n(CC(=O)NC2CCCCC2)c1=O	·	-1%[46.1 µM]	-8%	1%	22%	·	19%	-5%
O=C(CSc1ncccn1)NCc1cccs1	·	8%	4%	0%	-3%	·	-5%	33%[activator]
COc1ccc(Nc2ncc3c(n2)CCN(Cc2sccc2C)C3)c(OC)c1	-6%	·	·	·	·	1.1%	17%[46.1 µM]	-6%
Cn1c(O)c(C=Nc2ccccc2)c(=O)n(C)c1=O	·	?	-12%	2%	2%	·	10%	15%
Cc1cc2c(cc1S(=O)(=O)Nc1cccc(C(F)(F)F)c1)OCCN2C	10%	·	·	·	·	-2.7%	?	47%[activator]
COc1ccc(C2Nc3ccccc3C(=O)N2NS(C)(=O)=O)c(OC)c1 (stereo unspecified)	·	·	-2%	0%	0%	·	·	-1%
O=C(COc1ccc(Cl)cc1[N+](=O)[O-])NC1CCCCC1	·	·	6%	0%	-5%	·	·	2%
CCN(Cc1ccccc1)C(=O)Cn1c(=O)n(-c2cccc(C)c2)c(=O)c2c1c1cc(C)ccc1n2C	-4%	·	·	·	·	-1.3%	14%[46.1 µM]	-9%
COC(=O)C1CCN(C(=O)/C(C)=C\c2ccccc2)CC1	·	8%	-13%	4%	16%	·	24%	29%
Cc1nc(-c2ccc(C)c(S(=O)(=O)N3CCC(C(=O)NCc4ccc(Cl)cc4)CC3)c2)no1	4%	·	·	·	·	1.8%	-16%[46.1 µM]	0%
O=C(CCSc1ccccc1)NC1CCCCCC1	·	11%[46.1 µM]	6%	-2%	-3%	·	-1%	4%
Clc1ccc(OCCn2c(-c3ccco3)nc3ccccc32)cc1	8%	-16%	3%[3.69 µM]	-29%	-51%	-11%	8%	-29%
OCc1ccnc(Cl)c1	-6%	6%	11%	13%	-4%	-1.7%	8%	-13%
Cc1cccc(N2CCN(C(=O)Nc3ccc(F)cc3)CC2C)c1 (stereo unspecified)	-2%	4%[46.1 µM]	·	·	·	-4.1%	-14%[46.1 µM]	-27%
COc1cc(NC(=O)NC(C)c2c(-n3cccc3)sc3c2CCN(C)C3)cc(OC)c1 (stereo unspecified)	2%	·	·	·	·	-2.3%	?	-19%
CCOc1ccccc1-n1c(SCC(=O)NC)nnc1-c1ccco1	7%	8%	1%	-6%	0%	1.7%	26%[14.3 µM]	0%
